ugtP null kill: growth inhibition of S. aureus ugtP deletion strain; S. aureus RN4220 ugtP deletion, OD600 growth, 16 h; some inactives read as strong as hits; AID 1259309; 330,000 tested, 0.54% active; growth inhibition, % (concentration not given with the values);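 active means z-score under -3 and OD600 up to 0.15 on both plates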;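 further: plate controls were untreated wells for no effect and antibiotic for full effect; wells of about 80 µL received 100 nL stock; the first replicate is given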
PrP 5UTR inh: inhibition of PrP 5' UTR reporter expression. cell-based PrP 5' UTR mRNA reporter, plate reader. inhibition, % (test concentration not listed). 340,000 tested, 0.35% active. AID 488862;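 active means every replicate at 50% or more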;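 further: 0 = median of the neutral control wells; tested in H4 reporter cells; numbers are from one replicate; inactives centre near -14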
BJeLR lethal: BJeLR cell viability loss. 300,000 tested, 0.17% active. AID 1554. BJeLR (HRASV12) viability, CellTiter-Glo ATP luminescence, 48 h; reference of the scale not given here. inhibition, % (no concentration beside the values);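 active means replicate mean above 50%; inconclusive means above 50% but judged a plate artefact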;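 further: 50 nL library stock added to about 25 µL; numbers are from one replicate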
Mtb hypoxia inh: reduces hypoxia-regulated biosensor signal in M. tuberculosis; fluorescence inhibition, % (concentration not given with the values); M. tuberculosis hypoxia-regulated fluorescent reporter, fluorescence; 300,000 tested, 0.1% active;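 active means 35 to 45% if threefold the growth effect, above 45% if 1.5-fold the growth effect; inactive means the rest, general growth blockers included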;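 further: wells of about 50 µL received 100 nL stock; 0% = vehicle wells and 100% = reference inhibitor wells; whole bacteria with a GFP reporter of the hypoxia response; strong numbers were not always called active; many hits fall short of the cut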
RN4220 kill: S. aureus RN4220 growth inhibition. OD600, 16 h. inhibition, % (no concentration beside the values). 330,000 tested, 0.33% active;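 active means z-score of -3 or lower and OD600 up to 0.18 on both plates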;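 further: plate controls were untreated cells for no effect and reference antibiotic for full effect; stock transfer was 100 nL into about 80 µL; one replicate is shown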
Autofluor counter: flagged as autofluorescent in microsphere protease counterscreen | 360,000 tested, 3.1% active | compound autofluorescence counterscreen, microsphere flow cytometry; active compounds read high | fluorescence intensity (no concentration beside the values);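 active means at least 3 SD above the mean of all compounds, about 16000 in these data; inconclusive means too few beads counted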;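 further: 100 nL of 1 mM stock went into each well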
Mtb hypoxia inh growth: also measured in Mtb hypoxia inh; calls as there; growth inhibition, %; measured here: M. tuberculosis growth (absorbance);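 0% = vehicle and 100% = reference antibiotic; read after six days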
* marks the source's active call; other numbers are inactive results; u = inconclusive; x = no result given; & = joins results of further samples.

SMILES	ugtP null kill	PrP 5UTR inh	BJeLR lethal	Mtb hypoxia inh	Mtb hypoxia inh growth	RN4220 kill	Autofluor counter
O=C(Nc1ccccc1Br)C1CC(=O)N(c2ccc3c4c(cccc24)CC3)C1 (centres undefined)	-6	1	4	3	7	-5.7	1991
CCCS(=O)(=O)N1CCCC(C(=O)N2CCN(C(=O)OCC)CC2)C1 (centres undefined)	-3	-29	-13	0	10	-2.1	3084
COc1c(C)cc(C(=O)C2CCCN(C(=O)c3snnc3C)C2)cc1C (centres undefined)	9	-11	5	-2	2	6.9	2678
COc1cc(C)cc2oc(=O)c(CC(=O)N3CCN(C(=O)C4COc5ccccc5O4)CC3)c(C)c12 (centres undefined)	-7	-6	3	13	4	-1.7	5529
Clc1ccccc1-c1nc(-c2ccncc2)no1	11&-4	-145	4&7	0&1	6&-4	8.6&6.9	3717&4719
COc1ccccc1N(CC(=O)NC1CCCC1)C(=O)c1cnn(C(C)C)c1	3	-4	-3	x	x	2.9	4238
C=C(C)CSc1nc2c(c(=O)[nH]c(=O)n2C)n1CCC(C)C	0	-13	11	4	5	-0.1	5373
Cc1cccnc1CN1CCN(Cc2nc(C(c3ccccc3)c3ccccc3)no2)CC1	12	-10	2	7	16	2.0	4366
Cc1nc(N)sc1-c1ccccc1	-6	1	x	5	3	1.2	2953
Cc1nn(Cc2ccccc2)c(Cl)c1C(=O)NC1CCCc2ccccc21 (centres undefined)	20	-34	8	17	15	14	2925
CCOC(=O)CC(C)=NNC(=O)c1cccs1	2	x	x	4	-2	-1.9	x
COc1ccc(C(=O)N/N=C(\C)CC(=O)Nc2cccc(C(F)(F)F)c2)cc1	x	-34	3	x	x	x	3613
O=C(Nc1nnc(Cc2ccccc2)s1)Nc1ccccc1F	-3	-17	-7	21	8	1.0	4181
COc1ccc(C2C3=C(CC(c4ccco4)CC3=O)Nc3ccccc3N2C(C)=O)cc1 (centres undefined)	2	-23	5	x	x	-0.3	4706
CCCN1CCC2(CC1)C(C#N)=C(N)Oc1c2sc2nc(C)cc(C)c12	5	-7	4	x	x	-8.1	2749

Filtered by structure, the compounds so far containing a Cl atom (two)
SMILES	ugtP null kill	PrP 5UTR inh	BJeLR lethal	Mtb hypoxia inh	Mtb hypoxia inh growth	RN4220 kill	Autofluor counter
Clc1ccccc1-c1nc(-c2ccncc2)no1	11&-4	-145	4&7	0&1	6&-4	8.6&6.9	3717&4719
Cc1nn(Cc2ccccc2)c(Cl)c1C(=O)NC1CCCc2ccccc21 (centres undefined)	20	-34	8	17	15	14	2925

Continued:
SMILES	ugtP null kill	PrP 5UTR inh	BJeLR lethal	Mtb hypoxia inh	Mtb hypoxia inh growth	RN4220 kill	Autofluor counter
CC[C@@]1(C(=O)OC)N[C@H](CN(C)S(=O)(=O)c2ccc(OC(F)(F)F)cc2)[C@@H]2C(=O)N(C)C(=O)[C@@H]21	1	36	x	-9	1	2.3	3524
O=C(CSc1ncccc1C(=O)O)NCCC1=CCCCC1	3	-35	4	10	8	2.8	20428*
Cc1nn(C)cc1S(=O)(=O)NC1CCCC1	10	-19	8	18	-5	-0.7	4535
Cc1nn(-c2ccccc2)nc1CNC(=O)C(C)Cc1ccccc1 (centres undefined)	-1	-4	6	7	9	-2.0	4142
COc1ccc(/C=N/OCC(=O)OCC(=O)N(C)c2ccccc2)cc1	x	-26	-5	x	x	x	6225
Cc1ccc2c(c1)C1C(CO2)C(c2ccccc2)[C@]2(C)C(=O)Nc3cc(F)c(F)cc3C(=O)N12 (some centres undefined)	-8	x	x	-1	-7	-11	x
O=C(COC(=O)[C@H](Cc1ccccc1)NC(=O)c1cccs1)Nc1cc(F)ccc1F	11	13	-16	9	4	5.2	2322
CCOC(=O)NC(O)C(=O)c1ccc(F)cc1 (centres undefined)	4	0	0	4	8	2.1	2627
COC(=O)C(C)Sc1nc2c(c(=O)[nH]c(=O)n2C)n1CCC(C)C (centres undefined)	3	-23	-3	-5	-1	17	u
CC(C)CCOc1ccc(C(=O)N2CCCC2C(=O)O)cc1 (centres undefined)	-5	-1	0	5	-3	-0.2	3565
CC(C)N1CCN(Cc2ccccc2-c2ccco2)CC1CCO (centres undefined)	4	-1	1	-2	5	0.6	2532
COCCC(=O)N1CCC(Oc2ccc(C(=O)N3CCCC(OC)C3)cc2)CC1 (centres undefined)	0	-13	0	4	-11	-0.2	4308
Cc1noc(C)c1CSCC(=O)OCc1nc2ccccc2c(=O)n1CC#N	-8	-12	-5	-9	4	-0.4	21620*
O=C(c1cccc(Cl)c1)N1CCN(c2ncccn2)CC1	5	-8	2	-4	8	3.4	3699
CC(=NNC(=O)CSc1nc2ccccc2n1C)c1ccc(O)cc1	1	x	x	12	-2	4.5	x

Record cards (already shown).
`Cc1nn(-c2ccccc2)nc1CNC(=O)C(C)Cc1ccccc1` (centres undefined) across the screens: ugtP null kill = -1; PrP 5UTR inh = -4; BJeLR lethal = 6; Mtb hypoxia inh = 7; Mtb hypoxia inh growth = 9; RN4220 kill = -2.0; Autofluor counter = 4142
`COCCC(=O)N1CCC(Oc2ccc(C(=O)N3CCCC(OC)C3)cc2)CC1` (centres undefined) across the screens: ugtP null kill = 0; PrP 5UTR inh = -13; BJeLR lethal = 0; Mtb hypoxia inh = 4; Mtb hypoxia inh growth = -11; RN4220 kill = -0.2; Autofluor counter = 4308

Going on with the list.
SMILES	ugtP null kill	PrP 5UTR inh	BJeLR lethal	Mtb hypoxia inh	Mtb hypoxia inh growth	RN4220 kill	Autofluor counter
COc1c2c(nc3occc13)C(CC=C(C)C)(OC)C(=O)C=C2 (centres undefined)	7	-9	-12	18	5	5.4	3226
CC(OC(=O)C1CC1)C(=O)Nc1ncc(Cl)cc1Cl (centres undefined)	4	-13	x	-4	-3	9.8	5279
CC(=O)c1ccc(NC(=S)N2CCCC2)cc1	1	-32	6	2	-4	1.1	5955
O=C(CCCn1nnnc1CN1CCOCC1)N1CCC(c2ccccc2Cl)C1 (centres undefined)	2	-3	-15	5	4	1.5	5843
CC(C)n1c(C(O)c2ccc3c(c2)OCO3)nc2ccccc21 (centres undefined)	2	-14	3	9	5	4.6	10065
CC(C)C1N(C(=O)CN2CCCCC2)CCN1S(=O)(=O)c1ccccc1 (centres undefined)	8	-44	6	-2	-2	3.0	4204
CCOc1ccc(C(C)NC(=O)C2CCCC2)cc1 (centres undefined)	3	3	-1	18	16	5.5	4036
CC(=O)c1c(C(C)=O)c(C)n(C(c2ccccc2)c2ccccc2)c1C	7	-3	9	4	16	0.8	4893
Cc1ccccc1NC(=O)OCc1cccnc1Sc1ccc(Cl)cc1	-4	-20	4	x	x	0.1	4759
Clc1ccc(SCc2cc(-c3ccccc3)on2)cc1	9	-1	-5	x	x	10	2005
O=C(O)c1ccc(NCc2ccc(Br)cc2)cc1	-9	-5	3	-10	-5	-0.3	4126
Cc1cccc(C(=O)NCCCN2CCCC2=O)c1	7	-18	5	x	x	-0.7	2926
CSc1nnc(-c2cc[n+](C)cc2)n1CCO	4	-32	-11	14	3	1.9	1998
COc1ccc(C2=NS(=O)(=O)N(C)C(C(=O)NC(C)c3ccccc3)=C2)cc1OC (centres undefined)	5	-12	-8	x	x	1.2	5881
CCC(C)[C@H](NC(=O)OC(C)(C)C)c1nnc(SCc2c(C)[nH]c(=O)[nH]c2=O)o1 (some centres undefined)	x	-13	-1	x	x	x	3081
CC(NC(=O)C1CCCN1S(=O)(=O)c1ccc2c(c1)n(C)c(=O)c(=O)n2C)c1ccccc1 (centres undefined)	4	-13	6	9	-6	7.0	4209
CCOc1ccc(NC2=NCC(=O)N2Cc2cccs2)cc1	-4	-7	0	7	4	-14	3187
O=C(O)CSc1c2ccccc2cc2ccccc12	5	-6	6	18	5	15	4071
O=C(CCCCCn1c(=S)[nH]c2cc3c(cc2c1=O)OCO3)N1CCN(c2ccccc2)CC1	-2	15	3	1	3	-0.5	5390
COc1ccc(C2CC(=O)C(CS(=O)(=O)c3ccccc3)C(=O)C2)cc1 (centres undefined)	5	-17	-1	7	9	3.8	5068
O=C(CNC(=O)c1ccncc1)NN=Cc1cc(Br)ccc1OCc1ccccc1	17	x	x	17	3	-1.0	x
COc1cc(CCC(=O)OCC(=O)NC2CCCC(C)C2C)cc(OC)c1OC (centres undefined)	0	-12	-12	2	15	4.2	4290
CCOC(=O)C(C)Oc1cccc2c(=O)n(CC(=O)NCCc3ccc(OC)c(OC)c3)ccc12 (centres undefined)	2	-16	-2	-1	2	5.1	5694
c1ccc(CN2CCN(CCOCCOc3ccc4c(c3)CCC4)CC2)cc1	2	-6	-4	-2	11	4.7	4060
CCN1CCN(CC(=O)N2N=C(c3ccc(OC)cc3)CC2c2ccc(OC)cc2)C(=O)C1=O (centres undefined)	-68	-15	-4	8	6	12	4649
CN(Cc1c(F)cccc1Cl)C(=O)CNC(=O)c1ccc2c(c1)OCO2	2	-33	-2	7	0	2.5	u
COCCN(C(=S)Nc1ccccc1C)C(C)c1ccco1 (centres undefined)	6	-4	11	0	-6	5.6	6455
O=C(Nc1ccc(Br)cn1)c1coc(=O)c(Br)c1	3	-23	-2	8	6	4.7	5380
CCN=c1scc(-c2ccccc2)n1/N=C/c1ccccn1	x	41	12	x	x	x	2213
CCOC(=O)c1c(C)[nH]c(C(=O)OCC(=O)c2c(N)n(C)c(=O)n(C)c2=O)c1C	-2	x	-9	8	-3	3.1	x

Random excerpt: 2 compounds from above.
SMILES	ugtP null kill	PrP 5UTR inh	BJeLR lethal	Mtb hypoxia inh	Mtb hypoxia inh growth	RN4220 kill	Autofluor counter
O=C(O)CSc1c2ccccc2cc2ccccc12	5	-6	6	18	5	15	4071
O=C(Nc1ccc(Br)cn1)c1coc(=O)c(Br)c1	3	-23	-2	8	6	4.7	5380

Additional records
SMILES	ugtP null kill	PrP 5UTR inh	BJeLR lethal	Mtb hypoxia inh	Mtb hypoxia inh growth	RN4220 kill	Autofluor counter
Nc1ccc(OCc2ccccc2)cc1[N+](=O)[O-]	-17	-38	x	13	9	7.6	3870
O=C(Cn1c(C(F)(F)F)nc2ccccc21)NCCCN1CCOCC1	2	-5	1	8	10	3.1	u
CCN(CC)S(=O)(=O)c1cc(NC(=O)CCNC(=O)c2ccccc2Cl)ccc1C	-14	-7	6	-1	-7	-4.5	2537
Cc1nn(S(=O)(=O)c2ccc(F)cc2)c(C)c1S(=O)(=O)N1CCCCC1	0	-11	-10	13	4	2.8	6119
COc1ccc(CC(=O)ON=C(N)c2ccc(Br)cc2)cc1OC	1	x	x	-2	0	1.8	x
O=C(Nc1ccccc1N1CCOCC1)C1CCN(S(=O)(=O)c2ccccc2F)CC1	-3	-28	11	2	-1	-3.0	8608
COc1cccc2c(=O)c3cccc(N)c3[nH]c12	10	-20	-3	-1	-2	3.8	2621
O=C(CN1C(=O)C2CCCCC2C1=O)OCc1nnc(-c2ccccc2)o1 (centres undefined)	1	-21	-4	8	2	0.5	3938
COc1ccc(COn2nnc3ccc(S(=O)(=O)N4CCOCC4)cc32)cc1F	1	-12	4	-2	9	4.1	6328
COC(=O)C1=C(c2ccc(Cl)c(C(F)(F)F)c2)CC2CCC1N2C(=O)NC1CCCCC1 (centres undefined)	-11	x	x	6	8	-3.6	x
CC1CCN(Cc2nnnn2CCCC(=O)NCCN2CCOCC2)CC1	3	-10	2	13	-27	-0.1	6349
CCOc1ccc(Br)c(C2(O)CC(C)N(C)CC2C)c1 (centres undefined)	6	-3	9	x	x	1.1	4183
O=C(COC(=O)c1ccc(Cl)nc1)Nc1cc(S(=O)(=O)N2CCOCC2)ccc1Cl	11	-12	x	12	11	4.8	6555
COc1cc(C=C2C(=O)NC(=O)NC2=O)ccc1OCc1ccc([N+](=O)[O-])cc1	9	-89	x	-5	9	7.4	3838
CC(c1ccccc1)C1NC(C(=O)O)CS1 (centres undefined)	4	-7	-4	8	9	2.4	3125
COC(=O)c1ccccc1NC(=O)CSc1[nH]c(=O)cc(C)c1C#N	-6	-12	-2	-10	4	3.2	4483
Cn1c(=O)c2c(nc(N3CCOCC3)n2C/C=C/c2ccccc2)n(C)c1=O	-4	x	-6	3	15	0.5	5566
CCOc1ccc(CCNC(=O)COC(=O)c2cccnc2SC)cc1OCC	2	-1	7	1	-9	-1.8	6295
Fc1cccc(Cl)c1C=NNc1ccccn1	1	x	x	-1	5	3.1	x
Brc1ccc(OCCCCCN2CCOCC2)cc1	10	-21	-3	8	-3	4.1	4455
O=C(Cn1cnc([N+](=O)[O-])n1)NN=Cc1ccccc1O	1	x	x	9	6	-4.0	x
CCCCCCCCCC[n+]1cccc(C(=O)N(CC)CC)c1	4	-22	18	-5	2	-2.3	2048
CC(C)c1nc(Cl)c(C#N)c2c1CSC(C)(C)C2	-8	-4	1	11	-1	6.6	1963

Screens deposited in PubChem by several laboratories.
